Compound activity from PubChem.
VACV Venus inh: vaccinia inhibition (Venus reporter); Vaccinia virus Venus reporter expression, fluorescence; Potency, µM (highest dose often 36.5 µM), without a hit: at the top dose activity change, negative = inhibition, actives largely listed as inhibitors; 0.46% of 330,000 active; AID 720580; active means well fitted inhibition curve with a large enough effect; inconclusive means small, poorly fitted or top-dose-only effect; inactive means no such curve, though single readings can be large or run the other way; tested in A549 cells; also: nearly all actives have a fitted effect of over 30% in size; inactives centre near -10
Vaccinia mCherry: inhibitors of vaccinia virus infection (mCherry reporter signal); Vaccinia virus mCherry reporter infection, fluorescence; about a quarter of the inactives have no number; Potency, µM (doses to about 36.5 µM), without a hit: at the top dose activity change, negative = inhibition, usual class: inhibitors; 0.63% of 310,000 active; AID 720579; active = well fitted inhibition curve with a large enough effect; inconclusive = small, poorly fitted or top-dose-only effect; inactive = no such curve, though single readings can be large or run the other way; tested in A549 cells; also: nearly all actives have a fitted effect of over 35% in size; inactives centre near -10
* = called active by the depositor; i = inactive; ? = inconclusive; · = not tested or not shown. % is scaled to controls: 0 for no effect and ±100 for the full control effect; potency is read from the fitted curve at half-maximal effect.

SMILES	VACV Venus inh	Vaccinia mCherry
N#CC(=C1Nc2ccccc2N1)S(=O)(=O)c1ccccc1	-1.5%	-0.5%
COc1ccccc1NS(=O)(=O)c1cccc(NC(=O)c2ccc3ccccc3n2)c1	-18.2%	?
CC(C)(C)NC(=O)C(c1cc2ccccc2o1)n1c(=O)c(-c2ccco2)nc2ccccc21 (stereo not given)	-3.8%	-26.3%
C[C@H](CO)N1C[C@H](C)[C@@H](CN(C)C(=O)Nc2ccc3c(c2)OCO3)Oc2c(NC(=O)Cc3ccccc3)cccc2C1=O	-10.6%	i
COc1ccc(-c2nc(-c3ccccn3)ncc2S(C)(=O)=O)cc1	-3.9%	-2.2%
Cc1nn(Cc2c(F)cccc2Cl)c(=O)c2ccccc12	-9.7%	-4.1%
Cc1c(CCNC(=O)Cc2ccccc2)sc2nc(-c3ccc(F)cc3)nn12	-22.6%	-24.1%
CC(C)c1ccc(NC(=O)CSc2nnc(-c3ccccn3)n2C)cc1	-8.4%	-2.3%
COc1ccc(/C=C2\CCC(C3CCCC3)C2=O)cc1Cn1cccn1 (stereo not given)	-14.5%	i
Cc1cccc(C)c1NC(=O)C(C1CC1)n1c(=O)c(-c2ccco2)nc2ccccc21 (stereo not given)	-6.5%	-14.6%
CN(C)C(=O)c1cnc(Sc2ncc(C(F)(F)F)cc2Cl)n1C	?	·
CCCC(C)c1nnc(NC(=O)CCS(=O)(=O)c2ccccc2)s1 (stereo not given)	?	?
COc1ccc(N(CC(=O)NC2CCCC2)C(=O)Cn2nnc(-c3ccc(C)o3)n2)cc1	2.8%	0.0%
COc1ccc(C(=O)Nc2scc(-c3ccc(Cl)cc3Cl)c2C(N)=O)cc1	?	?
Nc1nc2ncccc2cc1C(=O)NC1CCCCC1	5.9%	-0.7%

A portion taken from the entries so far:
SMILES	VACV Venus inh	Vaccinia mCherry
COc1ccc(C(=O)Nc2scc(-c3ccc(Cl)cc3Cl)c2C(N)=O)cc1	?	?
Nc1nc2ncccc2cc1C(=O)NC1CCCCC1	5.9%	-0.7%

More records:
SMILES	VACV Venus inh	Vaccinia mCherry
O=C(COC(=O)c1ccc2c(c1)OCCO2)NCc1ccccc1Cl	4.1%	i
COc1cc(C)cc2oc(=O)c(CC(=O)NCc3cccc(Cl)c3)c(C)c12	-15.8%	-16.3%
C[C@H](CO)N1C[C@H](C)[C@@H](CN(C)C(=O)NC2CCCCC2)Oc2ccc(NC(=O)CCC(F)(F)F)cc2C1=O	-18.7%	-20.4%
Cc1nnc(N2CCC(C(=O)NC3CCCCC3)CC2)c2nn(-c3ccc(Cl)cc3)c(C)c12	-20.8%	-28.6%
OC(c1ccc2c(c1)CN(Cc1cccn1-c1cccnc1)CCO2)C1CCCCC1 (stereo not given)	-13.8%	-26.5%
O=C1CC2C(=O)NCCN2C(=NC(=O)c2ccccc2)N1 (stereo not given)	-14.0%	i
Cc1ccc(C(=O)NCCc2c[nH]c3ccccc23)c(C)c1	-0.8%	-23.4%
O=C(Cc1ccccc1F)OCC(=O)N1CCc2ccccc21	-7.8%	i
O=C(CN(C(=O)CCC(=O)Nc1nccs1)c1ccc(F)cc1)NCc1ccccc1	-12.3%	i
Cc1ccccc1C(=O)Nc1ccc(N(C)C)c2ccccc12	-8.2%	?
COc1ccccc1NC(=O)/C(=N/OCc1ccc(F)cc1)C(C)=O	-2.5%	i
Cc1ccc(-n2nc3ccc(NC(=O)COc4ccccc4C)cc3n2)cc1	-10.3%	-18.2%
CCN(CC)CCCNc1ccc(-c2nnc(-c3ccc(OCC(C)C)cc3)o2)cn1	-8.0%	-19.4%
COCCCNCC(=O)Nc1sc(C)c(C)c1C(=O)OC	-12.1%	i
CC(NC(=O)CSc1n[nH]c(N)n1)c1ccccc1 (stereo not given)	4.0%	-16.2%
CCOC(=O)c1ccc2c(c1)sc(=NC(=O)c1ccco1)n2CCOC	-1.1%	-4.3%
Cc1cc(SCNC(=O)c2ccccc2)ncn1	-6.2%	-11.2%
CCCN(C(=O)CN1C(=O)NC2(CCCCCC2)C1=O)C1CCS(=O)(=O)C1 (stereo not given)	14.0%	-7.9%
O=C1C(=O)c2cccc3cccc1c23	-13.2%	-16.4%
Oc1[nH]c2ccccc2c1C=NCC1CCCO1 (stereo not given)	2.0%	-9.8%
CCN1C(=O)c2cccc3c(NC(=O)c4ccccc4)ccc1c23	-19.6%	·
Cc1ccc(NC(=O)CC2SC(=O)NC2=O)cc1 (stereo not given)	-2.2%	-10.8%
O=S(=O)(c1ccccc1)c1ccccc1/C=N\O	?	·
CCCCOCCCNC(=O)C[C@@H]1C[C@@]2(C(=O)OCC)CCC=C2N(CCC2=CCCCC2)C1=O	-16.0%	-15.0%
CN(C)C(=O)CSc1cccc2cccnc12	?	·
O=C(c1ccc(F)cc1F)N1CCN(c2ccccn2)CC1	-8.2%	-2.1%
Cc1nn(-c2ccccc2)c(OC(=O)c2ccc(F)cc2)c1S(=O)(=O)c1ccccc1	-0.6%	-4.9%
CCC(CC)C(=O)N=C1SC2CS(=O)(=O)CC2N1CCc1ccc(OC)c(OC)c1 (stereo not given)	-15.8%	-3.6%
Cc1nn(-c2ccccc2)c(Cl)c1/C=C1\SC(=S)NC1=O	-10.6%	-18.4%
Cc1cccc(NC(=O)c2cccc(NC3=NC4CS(=O)(=O)CC4S3)c2)c1 (stereo not given)	-0.4%	-13.7%
C[C@@H](CSc1ccc(Br)cc1)CN1CC[C@H](C(C)(C)C)CCC1=O	?	-7.3%
C=CCn1c(SC(C)C(=O)NC2CC2)nnc1-c1ccoc1C (stereo not given)	-5.8%	-13.4%
O=C(O)CC(c1ccccc1)c1ccc2c(c1)OCO2 (stereo not given)	-5.6%	i
CCOC(=O)C1(CCc2ccccc2)CCN(C(=O)CN2CCOC2=O)CC1	-5.5%	-7.3%
CC(C)COC(=O)C(C)Nc1n[nH]c(=S)[nH]c1=O (stereo not given)	?	-8.1%
COc1cc(C2c3c(oc4ccccc4c3=O)C(=O)N2CCN2CCOCC2)cc(OC)c1OC (stereo not given)	-9.5%	·
COC(=O)N/N=C\c1c(C)[nH]n(-c2ccccc2)c1=O	0.4%	-8.6%
O=C(Nc1cccc(Cl)c1)Nc1ccc(Br)cc1F	?	?
COc1cc(CNC(=O)c2cc(-c3cc(OC)ccc3Cl)n[nH]2)cc(OC)c1	-4.9%	i
CC(C1SC(=S)NC1=O)C1SC(=S)NC1=O (stereo not given)	6.6%	i
Cc1ccnc(NS(=O)(=O)c2ccc(NC(=O)C3CCCCC3)cc2)n1	-8.8%	-10.1%
CCCn1c2ccccc2c2cnn(CC(=O)N(CCCOC)Cc3ccco3)c(=O)c21	-14.2%	-14.1%
CC(=O)c1ccc(-c2cnc3c(NC=O)cc(-c4ccc(C(=O)NC5CC5)cc4)cn23)cc1	?	-25.4%
CCN(CC)CCNC(=O)c1cc2c(=O)n(CC)c3ccccc3c2s1	-23.5%	2.6%
O=C(Nc1cccc(OC(F)(F)F)c1)C1Cc2c(-c3cccc(F)c3)ccnc2O1 (stereo not given)	-26.6%	-14.1%

Ordered by formula weight (largest number first): some entries from above.
SMILES	VACV Venus inh	Vaccinia mCherry
CC(=O)c1ccc(-c2cnc3c(NC=O)cc(-c4ccc(C(=O)NC5CC5)cc4)cn23)cc1	?	-25.4%
CCOC(=O)C1(CCc2ccccc2)CCN(C(=O)CN2CCOC2=O)CC1	-5.5%	-7.3%
CC(C)COC(=O)C(C)Nc1n[nH]c(=S)[nH]c1=O (stereo not given)	?	-8.1%

Next compounds
SMILES	VACV Venus inh	Vaccinia mCherry
CCn1c(=N)n(CC(O)COc2ccc(C)cc2)c2ccccc21 (stereo not given)	-14.4%	-13.5%
COc1ccc(NC(=O)CSc2ncc3c(n2)-c2cc(Cl)ccc2N(Cc2ccccc2F)S3(=O)=O)cc1	-3.1%	-24.5%
COc1ccc(N2CCN(C(=O)c3cccc(NS(=O)(=O)c4cccc(F)c4)c3)CC2)cc1	-5.7%	-4.0%
Cc1ccc(NC(=O)CNc2cc(S(=O)(=O)N3CCOCC3)ccc2NCC2CCCO2)cc1F (stereo not given)	-18.5%	-3.8%
O=C(/C=C/c1ccccc1)N/C(=C/c1ccccc1)C(=O)Nc1ccc(C(=O)O)cc1	-19.4%	-25.3%
C/C=C\C=C/C(=O)Nc1cccc(C2=NOC3(C2)C[C@@H](C(N)=O)N(C(=O)c2ccc(Cl)cc2)C3)c1 (stereo not given in full)	-9.0%	i
COc1ccc(/C=N/N2C(C)CCCC2C)cc1O (stereo not given)	-1.8%	4.8%
O=C1NCCCC1C(=O)N/N=C/c1cc([N+](=O)[O-])ccc1O (stereo not given)	-15.6%	i
COCCNC(=S)N(C)[C@H]1C[C@H]2c3cc(Oc4ccccc4C)ccc3CCN2C(=O)[C@H]1[C@H](C)O	?	-9.6%
O=C(CCCc1cccs1)Nc1nccs1	-28.2%	i
C=CCOC(=O)N1CCN(c2cccc(C(F)(F)F)c2)CC1	-15.0%	i
Cc1ccc(NC(=O)c2c(C)noc2C)cc1S(=O)(=O)N1CCOCC1	-18.4%	i
O=C(Cn1c(=S)[nH]c2ccccc2c1=O)N1CCN(c2ccccc2)CC1	-7.1%	-12.6%
COc1cccc(C2CC(=O)Nc3c2ccc(C)c3C)c1OC (stereo not given)	-12.5%	-17.8%
Cc1ccc(NC(=O)CCn2nc(-c3ccccc3)c3ccccc3c2=O)c(C)c1	-8.6%	-8.1%
CC1=CC(C)C(=O)N(CCN2CCOCC2)C(C)=C1 (stereo not given)	-9.5%	-0.4%
O=C1CC[C@@H](C(=O)NCC2Cc3cc(Cl)cc(-c4ccc5[nH]ccc5c4)c3O2)N1 (stereo not given in full)	5.3%	-19.8%
COCCn1c(SCC(=O)Nc2cccc(S(N)(=O)=O)c2)nc2ccccc21	-1.4%	·
O=C(/C=C/[C@H]1O[C@@H](n2ccc(=O)[nH]c2=O)[C@H](O)[C@@H]1O)NCc1cccs1	-1.7%	i
Cc1ccc(S(=O)(=O)N2C[C@H]3[C@H]4C(=O)N(c5ccccc5)C(=O)[C@H]4CC(=O)[C@H]3[C@@H]2c2ccccc2F)cc1	-4.9%	12.3%
CCCCN1CCc2c([nH]c3ccccc23)C1=O	-16.1%	·
COc1cc(C(=O)C(=O)N2CCN(c3ccc(C)cc3)CC2)cc2ccccc12	-8.2%	-24.6%
Cc1ccccc1Nc1nnc(-c2ccc(C)c(S(=O)(=O)N3CCN(C)CC3)c2)c2ccccc12	-10.5%	i
O=c1ccc2cc(S(=O)(=O)Nc3ccc(OC(F)(F)F)cc3)ccc2[nH]1	-10.4%	-3.7%
Cn1c(SCC(=O)N2CCCCCC2)nnc1-c1ccco1	-15.0%	-4.7%
COc1cc(C2C(C#N)=C(N)OC3=C2C(=O)CCC3)c([N+](=O)[O-])cc1OC (stereo not given)	5.2%	-10.4%
CCCCCNC(=O)C1CCC(Cn2c(=O)c3sccc3n(CC)c2=O)CC1 (stereo not given)	-6.1%	-22.8%
CCn1c(=O)cc(SCC(=O)N2CCN(c3ccccc3F)CC2)c2ccccc21	-4.5%	-5.7%
COc1ccc(-c2csc(NC(=O)c3cc(=O)c4ccccc4o3)n2)cc1OC	-8.0%	-0.6%
COc1ccccc1-c1nnc(SC/C(O)=C(\C#N)c2nc3ccccc3[nH]2)n1C1CCCCC1	-20.0%	-10.2%
O=C(Nc1cc(Sc2ccccn2)cc([N+](=O)[O-])c1)c1cccc(F)c1	?	?
COC(=O)CC1C(=O)NC2CCCCC2N1C(=O)c1ccccc1 (stereo not given)	-18.6%	-18.7%
COc1ccc(C(C)=O)cc1COC(=O)c1ccc(N)c([N+](=O)[O-])c1	-13.2%	i
Cc1ccc2cc(CN(Cc3nnnn3C3CCCC3)C3CCCCC3)c(=O)[nH]c2c1C	0.0%	?
Fc1ccc(C2=Nn3c(Cc4ccccc4)nnc3SC2)cc1	-18.7%	-22.3%
Cc1cc(C)cc(N2C(=O)CS(=O)(=O)C23C(=O)N(Cc2ccc(F)cc2)c2ccc(C)cc23)c1 (stereo not given)	-5.6%	-0.7%
Cc1ccsc1/C=N/NC(=O)c1ccco1	-5.3%	-1.6%
CC(C)NC(=O)COc1ccc(S(=O)(=O)N2CCOCC2)cc1	-2.8%	-14.6%
CCc1cccc(NC(=O)C(Cc2ccccc2)NS(=O)(=O)c2cccs2)c1 (stereo not given)	-8.9%	-7.0%
COc1cccc(-c2csc(N3CCN(CC(=O)NNC(=O)c4ccc(Cl)cc4)CC3)n2)c1	-15.6%	-16.3%
Nc1cccc(-c2nc3ccc(N)cc3s2)c1	-20.2%	?
COc1ccc(-c2[nH]c(-c3ccc(C)cc3)nc2SCC(=O)Nc2nccs2)cc1	?	-27.6%
COc1cc(OC)cc(C(=O)N[C@H](C(=O)Nc2cccc(S(=O)(=O)N3CCCC3)c2)C(C)C)c1	-9.1%	5.9%
Cc1cccc(C(=O)N2CCOc3ccc(CN(C)Cc4cc(C5CC5)n[nH]4)cc3C2)n1	-9.2%	-5.8%
COc1cc(C(=O)NC(=S)Nc2ccc(NC(=O)c3ccco3)cc2)cc(OC)c1OC	-28.1%	?
C=CCNC(=O)/C(C#N)=C/c1c(N2CCN(c3ccccc3)CC2)nc2c(C)cccn2c1=O	1.8%	-3.2%
Cc1c(NCc2ccccc2O)c(=O)n(-c2ccccc2)n1C	-1.7%	i
O=C(Nc1ccccc1)c1cnc(N2CCCCC2)c2ccccc12	-24.9%	-23.7%

This is a random part of the collection; 0.82% or so of the library scored in one or more.
